High-throughput results from PubChem.
GIV Gai3 FP: GIV-Galpha-i interaction inhibition; percent of control (FP), % (concentration not given with the values); actives 0.42% (n = 210,000); Galpha-i3/FITC-GIV peptide fluorescence polarization, 90 min; active compounds read low; scaled: aluminum fluoride 0%, vehicle 100%;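 active means replicate mean at 85% of control or lower, very high polarization wells dropped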;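 further: wells of about 15 µL received 100 nL stock; the first replicate is given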
Target sequence (P08753 whole entry, looked up): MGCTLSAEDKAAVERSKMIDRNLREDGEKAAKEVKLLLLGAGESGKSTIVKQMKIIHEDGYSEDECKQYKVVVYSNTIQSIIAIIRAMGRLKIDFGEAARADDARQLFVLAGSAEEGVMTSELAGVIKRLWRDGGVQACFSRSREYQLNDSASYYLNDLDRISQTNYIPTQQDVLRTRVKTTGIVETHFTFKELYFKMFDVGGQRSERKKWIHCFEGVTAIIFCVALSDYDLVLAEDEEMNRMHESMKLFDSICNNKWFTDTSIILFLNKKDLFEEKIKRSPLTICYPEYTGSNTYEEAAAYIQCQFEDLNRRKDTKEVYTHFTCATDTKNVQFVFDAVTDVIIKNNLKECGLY
Sa growth inh: blocks Staphylococcus aureus growth; S. aureus RN4220 growth, OD600, 20 h, 42 °C; active compounds read low; relative growth, % (test concentration not listed); actives 0.53% (n = 170,000); AID 720641;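 active means growth at 42 °C up to 50% and 20 or more points under that at 30 °C, or under 10% at both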;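 further: 300 nL library stock went into each well; scaled to the means of positive and negative controls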
HCMV NEC inh: disrupts HCMV UL50-UL53 complex binding; inhibition, % (test concentration not listed); actives 0.15% (n = 190,000); HTRF UL50-UL53 interaction, normalized percent inhibition;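 active means both replicates at 50% or more, plus weaker picks with an unusually low signal ratio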;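 further: stock transfer was 100 nL into about 20 µL; 0% = negative control wells and 100% = wells with untagged competitor protein; inactives centre near -12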
Sa growth inh second temp: recorded beside Sa growth inh, whose call it bears; relative growth, %; measured here: growth at 30 °C;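 optical density after 20 h as mean of two plates; 100% = untreated growth and lower means inhibition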
An asterisk follows results filed as active; nt = no result given; & = joins results of further samples.

[1] Cn1cc(Br)c(-c2cccc(NC(=O)CSCC(=O)O)c2)n1
[2] CCOC(=O)c1cc(-c2ccccc2)n(CCC(=O)Nc2ccc(OC)c(Cl)c2)c1C
[3] Cc1cccc(N2CCN(C(=O)N(C)C)CC2)c1C
[4] N=c1c[n+](N2CCOCC2)[n-]o1
[5] Cc1cc(COC(=O)c2ccccc2Sc2ccccc2C#N)no1
[6] CCOC(=O)CC1=C(C(=O)OCC)C(c2ccc(OC)cc2)C(C#N)=C(N)O1 (centres undefined)
[7] Cc1ccc(Cl)cc1N1CCN(C(=O)C2CCCN(S(=O)(=O)c3cccc4nonc34)C2)CC1 (centres undefined)
[8] CCOc1ccc(-n2c(=O)c3c4c(sc3n(CC(=O)NC(C)CC)c2=O)CCCC4)cc1 (centres undefined)
Assay by compound,1,2,3,4,5,6,7,8
GIV Gai3 FP,105,98,107,93&101,nt,105,106,98
Sa growth inh,118,164,102,nt,80,nt,110,100
Sa growth inh second temp,92,117,103,nt,85,nt,93,86
HCMV NEC inh,7,nt,16,-33&-13,-19,-25,-12,-2

Profiles, looked up by structure.
`Cc1cc(COC(=O)c2ccccc2Sc2ccccc2C#N)no1` is listed as GIV Gai3 FP = nt; Sa growth inh = 80; Sa growth inh second temp = 85; HCMV NEC inh = -19
`CCOC(=O)CC1=C(C(=O)OCC)C(c2ccc(OC)cc2)C(C#N)=C(N)O1` (centres undefined) is listed as GIV Gai3 FP = 105; Sa growth inh = nt; Sa growth inh second temp = nt; HCMV NEC inh = -25
`N=c1c[n+](N2CCOCC2)[n-]o1` is listed as GIV Gai3 FP = 93&101; Sa growth inh = nt; Sa growth inh second temp = nt; HCMV NEC inh = -33&-13

Remaining list, next part:
[9] CCOc1nc2ccc(C)cc2c(=O)o1
[10] CCc1ccc2occ(CC(=O)Nc3c(C(=O)c4ccc(C)cc4)oc4ccccc34)c2c1
[11] Cc1cc(N2CCC3CCCC(C2)N3Cc2ccccc2)n2c(n1)nc1ccccc12 (centres undefined)
[12] CCn1c2c(c(=O)n3ncc(C(=O)Nc4ccc(C(=O)OC)cc4)c13)CN(Cc1ccc(OC)cc1)CC2
[13] COc1cccc(NC(=O)CSc2nncn2N)c1
[14] S=C(S)N1CCCC1
[15] COc1ccc(C(=O)N=Nc2c(O)n(CN3CCN(C)CC3)c3ccccc23)cc1OC
[16] N#Cc1cccn1-c1ncc(C(F)(F)F)cc1Cl
Assay by compound,9,10,11,12,13,14,15,16
GIV Gai3 FP,98,108&104,105,103,97,107,98,104
Sa growth inh,151,115,124,88,93,1.7*,100,nt
Sa growth inh second temp,73,89,83,77,96,0.1*,97,nt
HCMV NEC inh,-15,-16&-16,-13,nt,-24,-1&-11&-8,-31,-22

[17] Cc1nc2ccn(Cc3ccco3)c(=O)c2cc1C(=O)NCc1ccccc1F
[18] CCCn1cnc2cc(NCc3ccc(OC)cc3OC)ccc21
[19] COc1ccc(-c2cc3nc(C)c(CCC(=O)N4CCN(c5ccccc5F)CC4)c(C)n3n2)c(OC)c1
[20] CCCn1c(Cn2ccnc2C)nc2cc(NC(=O)CC(C)C)ccc21
[21] Cc1ccc(-c2nc3ccccc3s2)cc1
[22] COc1ccc(NS(=O)(=O)c2ccc3oc(SCC(=O)N4CCc5ccccc5C4)nc3c2)cc1
[23] O=C1CC(c2ccco2)CC(O)=C1C=NC1CCCCC1N=CC1=C(O)CC(c2ccco2)CC1=O (centres undefined)
[24] CC(C)C(=O)N1CCCCCC1
Assay by compound,17,18,19,20,21,22,23,24
GIV Gai3 FP,99,109&96,104,106,nt,nt,102,nt
Sa growth inh,79,104,112,nt,101,99,95,93
Sa growth inh second temp,87,77,91,nt,98,101,90,93
HCMV NEC inh,nt,-16&-22,-25,16,35,-7,nt,5

[25] C/C(=N\O)c1ccccc1O
[26] O=C1c2cccc3cccc(c23)C(=O)N1CC1CCN(C(=O)C2(S(=O)(=O)c3ccccc3)CC2)CC1
[27] COc1ccc(NC2=CC(=O)CCC2)c(OC)c1
[28] Cc1ccc(-c2c(Nc3cc(C)[nH]n3)c(=O)c2=O)cc1
[29] CC(C)c1ccc(Cc2nnc(NN3CCOCC3)[nH]c2=O)cc1
[30] COC(=O)CS(=O)(=O)c1cc(Br)cc2c1N(C(C)=O)CC2
[31] COc1cc(C(F)(F)F)cc(C(F)(F)F)c1C(=O)NCc1cccs1
[32] Cc1nn(Cc2ccccc2)c(=O)c2noc(C)c12
Assay by compound,25,26,27,28,29,30,31,32
GIV Gai3 FP,106,100,109,119,103,110,102,109
Sa growth inh,nt,nt,95,nt,84,85,89,nt
Sa growth inh second temp,nt,nt,91,nt,90,93,88,nt
HCMV NEC inh,-19,-27,-3,-58,-45,-3,-43,-12

[33] Cc1cc(C)c2c(n1)SCCN2C(=O)Nc1ccc(Br)cc1F
[34] COc1ccc(-n2cnc3c(cnn3CCC#N)c2=N)cc1
[35] CCOC(=O)c1noc2ncnc(N3CCN(c4ccccc4OC)CC3)c12
[36] Cc1cc(C)c(SCC(=O)NCc2ccc3c(c2)OCO3)c(C)c1
[37] CC1(C)CC(=O)C2=C(C1)Nc1ccccc1NC2c1ccccc1 (centres undefined)
[38] CCc1nc(Cc2nc3ccccc3[nH]2)no1
[39] CCN(CC)CCNc1cc(C)nc2c(-c3ccc(Cl)cc3)c(C(F)(F)F)nn12
[40] Fc1ccc(CNc2nc3c(-c4ccc(F)cc4)nnn3c3ccccc23)cc1
Assay by compound,33,34,35,36,37,38,39,40
GIV Gai3 FP,106,nt,105,110,97,107,106,108
Sa growth inh,nt,59,84,89,111&99,92,nt,95
Sa growth inh second temp,nt,24,93,96,89&106,92,nt,91
HCMV NEC inh,-9,2,nt,12,-11&-16,-9,-13,-41

[41] O=C(NCc1nnc(SCC(=O)N2CCCCC2)o1)c1cccs1
[42] Cc1ccc(Cc2nc3nc4c(c(NCc5ccc6c(c5)OCO6)n3n2)CCCC4)cc1
[43] Cc1cc(C)n2nc(CN(C(=O)C(C)C)c3ccccc3)nc2n1
[44] Cc1ccc2sc(N(CCN(C)C)C(=O)c3ccccc3Cl)nc2c1C
[45] Cn1nc(C(C)(C)C)c(NC(=O)c2cccnc2)c1C(C)(C)C
[46] CC(C)c1ccc2c(c1)C1(N=C(N)Nc3nc4ccccc4n31)C(=O)N2 (centres undefined)
[47] O=C1CCCN1C(=O)COc1ccc(Cl)c2ccccc12
[48] COc1ccc(Cn2c(C)c(C3=CCN(S(=O)(=O)c4cccc5nsnc45)CC3)c3ccccc32)cc1
Assay by compound,41,42,43,44,45,46,47,48
GIV Gai3 FP,99,98,102,113,101,nt,nt,108
Sa growth inh,112,nt,nt,nt,90,81,98,nt
Sa growth inh second temp,89,nt,nt,nt,91,90,101,nt
HCMV NEC inh,nt,-10,-14,8,-22,-19,-10,-6

[49] C=CCN1C(=O)/C(=C/c2c(NCC)nc3ccccn3c2=O)SC1=S
[50] C=CCN(CC=C)C(C)C(=O)Nc1cc2oc3ccccc3c2cc1OC (centres undefined)
[51] CCOc1ccc(S(=O)(=O)NCCSc2ccccc2)cc1
[52] Cc1cccc(CN2C(=O)CC(c3ccc(Cl)cc3)c3c(C)nn(-c4nc(C)cc(C)n4)c32)c1 (centres undefined)
[53] CCc1ccc(C(=O)Nc2cc(C)nn2-c2nc3ccccc3s2)cc1
[54] Cc1ccc2nc(SCc3nc(-c4ccccc4C)no3)[nH]c2c1
[55] Cn1c(COc2ccccc2Cl)nnc1SCC(=O)N1CCNC1=O
[56] Cc1cc(C)n(-c2ccc(C(=O)N3CCCSC3=Nc3ccccc3)cc2)n1
Assay by compound,49,50,51,52,53,54,55,56
GIV Gai3 FP,-33*,nt,105,98,nt,101,nt,nt
Sa growth inh,90,83,88,94,114,101,112,103
Sa growth inh second temp,81,82,94,79,95,92,89,90
HCMV NEC inh,nt,-13,-14,-34,5,-9,-6,-5

[57] COC(=O)c1ccc(NC(=O)CN2C(=O)CCC2=O)cc1
[58] Cc1ccc(C(=O)COC(=O)C(C)N2C(=O)C3C4C=CC(C4)C3C2=O)cc1 (centres undefined)
[59] O=C(Nc1ccccc1)N1CCc2sccc2C1c1ccc(C(F)(F)F)cc1 (centres undefined)
[60] O=S(=O)(/N=C1\C=C2N(CCO)CCOC2(O)c2ccccc21)c1ccc(F)cc1 (centres undefined)
[61] CCOC(=O)c1c(C)n(CC)c2ccc(OC)cc12
[62] O=C(NC1CCCCCCC1)c1cccs1
[63] O=C(CC1COc2ccccc2N1Cc1ccccc1)Nc1ccc(Cl)cc1 (centres undefined)
[64] O=C(NCc1ccccc1)c1nc2ncccn2n1
Assay by compound,57,58,59,60,61,62,63,64
GIV Gai3 FP,nt,101,102,96,101,nt,110,103
Sa growth inh,78,96,78,38,112,90,nt,106
Sa growth inh second temp,92,91,88,23,91,88,nt,95
HCMV NEC inh,-11,4,-15,40*,nt,-1,-17,nt

[65] CC(C)Cc1ccc(C(C)C(=O)Nc2nn(C)c3ccccc23)cc1 (centres undefined)
[66] CN(C)c1ccc(CN(CC2CCCO2)C(=O)c2cc(-c3ccc(Cl)cc3)on2)cc1 (centres undefined)
[67] Cc1ccc(-n2ncc3c(=O)[nH]c(SC(C)C)nc32)cc1
[68] Cc1ccc(-c2cc(C(=O)c3nccn3C)c3ccccc3n2)cc1
[69] Cc1cc(C)c(S(=O)(=O)N2CCCC2c2nnc(C(=O)Nc3cccc(F)c3)s2)c(C)c1 (centres undefined)
[70] COc1ccc(-c2c(C)nn3c(-c4ccccc4)cc(C)nc23)cc1OC
[71] O=C(COc1ccc(Br)cc1)Nc1ccc2c(c1)C(=O)c1ccccc1C2=O
[72] O=c1c(NC2CCCC2)c(-c2ccc(Cl)cc2)c1=O
Assay by compound,65,66,67,68,69,70,71,72
GIV Gai3 FP,101,99,95,nt,104,106,101,108
Sa growth inh,102,nt,94,125,nt,99,nt,nt
Sa growth inh second temp,107,nt,100,88,nt,84,nt,nt
HCMV NEC inh,4,-18,-25,-29,-18,-17,0,-35

[73] COc1ccc(C2=CC(=O)C=CC2=O)cc1
[74] COC(=O)c1ccc(O)c(C(=O)OC)c1
[75] Cc1ccc(C(=O)N2CCn3c(C)ccc3C2C)cc1 (centres undefined)
[76] O=C1NC2(CCCC2)Cc2ccccc21
[77] O=C(Nc1ccc(F)c(Cl)c1)c1ccc2c(Cl)c3c(nc2c1)CCCC3
[78] CCOc1cc(C2C(C(=O)OC(C)C)=C(C)NC3=C2C(=O)CC(c2ccc(OC)cc2)C3)ccc1O (centres undefined)
[79] O=C(O)[C@@H]1CSC(c2coc3ccccc3c2=O)N1 (some centres undefined)
[80] O=C(CC1CCCC1)N1CC(OCc2ccc(Cl)cc2)C1
Assay by compound,73,74,75,76,77,78,79,80
GIV Gai3 FP,107,nt,165,109,108,106,nt,104
Sa growth inh,48,80,90,94,76,nt,54,nt
Sa growth inh second temp,26,91,47,89,107,nt,67,nt
HCMV NEC inh,22,-6,-30,-11,0,-22,14,7

[81] Cc1cc(C)c(/C=C/c2onc(C)c2S(=O)(=O)N2CCC(C(=O)Nc3cccc(C)c3C)CC2)c(C)c1
[82] COc1ccccc1N=c1scc(-c2ccc(S(=O)(=O)N3CCCC3)cc2)n1C
[83] CCOCCCNC(=O)c1ccc(Cn2c(SCc3cccc(OC)c3)nc3ccncc32)cc1
[84] CCn1cc(C(CNC(=O)NCc2ccccc2)c2cccnc2)c2ccccc21 (centres undefined)
[85] COC(=O)CC1(C)OCC2(CC=C(C)CC2)CO1 (centres undefined)
[86] CCCn1nc(Oc2nc(NCC)nc(NC(C)C)n2)ccc1=O
[87] O=C(COc1ccc(Cl)cc1)OCC(=O)N1CCCC1
[88] CNS(=O)(=O)c1cn(CC(=O)N2CCN(c3cccc(Cl)c3)CC2)cc1S(=O)(=O)NC
[89] Cc1ccc(-c2nc(CS(=O)CC(=O)N3CCN(c4ccc(Cl)cc4)CC3)c(C)o2)cc1 (centres undefined)
[90] CC(C)(C)NC(=O)c1c(N)no[n+]1[O-]
Assay by compound,81,82,83,84,85,86,87,88,89,90
GIV Gai3 FP,109,103,100,98,nt,105,nt,98,105&106,110
Sa growth inh,102,99,nt,nt,106,82,111,80,101,101
Sa growth inh second temp,99,89,nt,nt,79,87,97,88,84,69
HCMV NEC inh,nt,-78,-11,-26,-34,-6,15,nt,nt,-7
